# Bioassay records (PubChem)
# VDR inh = Inhibitors of the vitamin D receptor (VDR): qHTS. Vitamin D3 receptor (Homo sapiens), P11473. VDR-SRC2-3 peptide fluorescence polarization, 2 h. Potency, µM, for the others: max response, negative = inhibition, usual class: inhibitors. 400,000 tested, 0.93% active. AID 504847, 2011; active = well fitted inhibition curve with a large enough effect; inconclusive = small, poorly fitted or top-dose-only effect, or another doubt; inactive = no such curve, though single readings can be large or run the other way; also: series mostly up to about 120 µM
# Target sequence (P11473 whole entry, looked up): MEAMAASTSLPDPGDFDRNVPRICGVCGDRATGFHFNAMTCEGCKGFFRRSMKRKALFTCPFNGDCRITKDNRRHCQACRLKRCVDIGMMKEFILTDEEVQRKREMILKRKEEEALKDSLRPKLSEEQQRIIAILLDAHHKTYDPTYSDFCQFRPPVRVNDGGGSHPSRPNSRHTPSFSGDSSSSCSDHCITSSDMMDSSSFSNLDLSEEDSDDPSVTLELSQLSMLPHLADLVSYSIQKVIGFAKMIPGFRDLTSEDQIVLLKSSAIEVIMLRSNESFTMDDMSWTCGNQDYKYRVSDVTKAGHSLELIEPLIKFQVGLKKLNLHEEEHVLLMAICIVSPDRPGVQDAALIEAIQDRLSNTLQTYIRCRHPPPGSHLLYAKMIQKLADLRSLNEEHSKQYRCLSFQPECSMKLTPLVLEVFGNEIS
#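 FP read-out; VDR + SRC2-3 coactivator peptide; 23 nl compound by pintool; 2 h RT incubation; reagents held at 4 deg C, protected from light.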
# Numbers without * were called inactive; ? = inconclusive. % is scaled to controls: 0 for no effect and ±100 for the full control effect; potency is read from the fitted curve at half-maximal effect. Some of the compounds tested; the hit share may differ from the screen's.
SMILES,VDR inh
CCc1nc(SCC(=O)Nc2cc(C)on2)n[nH]1,9.3%
O=C(c1ccco1)N(Cc1cc2ccccc2[nH]c1=O)CC1CCCO1 (stereo not drawn),-5.4%
Cc1ccc2[nH]c(=O)cc(C(=O)OCC(=O)c3ccc(F)cc3)c2c1,?
CC1CCN(c2ccccc2NC(=O)c2cc([N+](=O)[O-])ccc2N2CCOCC2)CC1,-9.7%
CCCCCC(=O)NC(=S)Nc1ccccc1C(=O)OC,9.0%
Cc1cc(=O)n2nc(N3CCCC(C(=O)N4CCN(c5ccccc5)CC4)C3)sc2n1 (stereo not drawn),-8.3%
O=C(COc1ccc(C(=O)c2ccccc2)cc1)NCc1ccc(F)cc1,-0.9%
COc1cccc(CNc2ccc(S(=O)(=O)N3CCCC3)cn2)c1,-0.7%
CC(NC(=O)c1ccccc1Br)c1nnc(SCc2ccc([N+](=O)[O-])cc2)n1C (stereo not drawn),-17.6%
Cc1ccc(-n2cc(CN3CCN(Cc4nccn4C)CC3)c(-c3ccc(F)cc3)n2)cc1,17.6%
Cn1c(=O)cc(SCC(=O)NCCCN2CCN(c3ccc(F)cc3)CC2)c2ccccc21,17.7%
COCCCNc1nc2ccccc2nc1NS(=O)(=O)c1cccs1,-0.8%
CC1CCN(S(=O)(=O)c2cccc(S(=O)(=O)N3CCOCC3)c2)CC1,1.9%
COCCNC(=O)C(=O)NCC1OCCN1S(=O)(=O)c1ccc2c(c1)OCCO2 (stereo not drawn),15.1%
O=C(c1cnccn1)N1CCC[C@@]2(CCN(c3ncccn3)C2)C1,0.8%
CC(=O)NC(CCS(C)(=O)=O)C(=O)Nc1cc(Cl)ccc1Cl (stereo not drawn),2.3%
O=c1cc(-c2ccccc2)[nH]c2[nH]n(-c3ccccc3)c(=O)c12,-0.8%
Cc1ccc(S(=O)(=O)/N=C(\N)c2ccc(F)cc2)cc1,-17.9%
CCOc1ccccc1/C=N/NC(=O)c1cccc(Cl)c1,-15.0%
COc1ccc(CCNCC(O)Cn2ccc3ccccc32)cc1OC (stereo not drawn),-22.4%
O=C1CCC(C(=O)OC(C(=O)Nc2cc(Cl)cc(Cl)c2)c2ccccc2)=NN1 (stereo not drawn),-17.8%
CCNc1sc(C(=O)OCC)c(N)c1C#N,4.0%
COc1ccc(C(=O)COC(=O)c2cc3ccccc3oc2=O)c(OC)c1,?
Nc1ccc(Br)cc1C(=O)O,-1.0%
O=C(NCc1ccco1)C(c1ccccc1)N(Cc1ccccc1)C(=O)Cn1nnc2ccccc21 (stereo not drawn),-9.5%
# Next part.
SMILES,VDR inh
CCn1cc(C(=O)N2CCN(c3ccccc3)CC2)c(=O)c2cc(S(=O)(=O)N(C)C)ccc21,?
CN(C)c1ncc2nc(-c3cc(F)cc(F)c3)c(=O)n(-c3ccccc3)c2n1,-2.3%
Cn1nccc1NC(=O)CSCC(=O)O,-9.1%
CCOc1ccc(C2C(C#N)=C(N)Oc3cc(C)n(CCN4CCOCC4)c(=O)c32)cc1OCC (stereo not drawn),4.2%
CN(C)c1nc2c(c(=O)n(C)c(=O)n2C)n1Cc1ccccc1,-3.0%
CCOc1ccc(Nc2nc(Cl)nc(N3CCN(c4ccc(OC)cc4)CC3)n2)cc1,-7.2%
Cc1onc(-c2c(Cl)cccc2Cl)c1C(=O)O/N=C(\C#N)c1c(Cl)cccc1Cl,-13.9%
O=C(/C=C/c1ccccc1Cl)NCc1ccco1,7.5%
CC(/C=C/c1ccccc1)=N\NC(=O)c1ccc(Br)cc1,-4.3%
Fc1ccc(CN2CCN(c3ncnc4scc(-c5ccc(F)cc5)c34)CC2)cc1,-2.5%
Cc1cc2[nH]c3c4ccccc4nc(C)c3c2cc1C,11.3%
Cc1cccc(N2CCN(S(=O)(=O)c3cc(Cl)ccc3Cl)CC2)c1C,-14.4%
COc1ccc(N2CCN(C3CCCN(Cc4ccc(F)cc4)C3)CC2)cc1 (stereo not drawn),-12.7%
CC1CCCCN1S(=O)(=O)c1ccc(S(=O)(=O)N2CCN(C)CC2)cc1 (stereo not drawn),-21.9%
CNC(=S)N1N=C(c2ccc(OC)cc2)CC1c1ccccc1Cl (stereo not drawn),-0.2%
CCCCOC(=O)Nc1ccc(S(=O)(=O)Nc2cc(C)nc(C)n2)cc1,-12.9%
CCOC(=O)Cn1c(=O)n(CC2CCCO2)c2nc(-c3ccccc3F)nc(C(N)=O)c21 (stereo not drawn),14.4%
CC(C)(C)[C@@H]1C=C(C(=O)O)O[C@H](OCCCCO)C1,-12.0%
CC1CC(C)CN(C(=O)COC(=O)CN2C(=O)c3ccccc3C2=O)C1 (stereo not drawn),-1.5%
CC12CCC(c3c(CO)nn(-c4ccccc4)c31)C2(C)C (stereo not drawn),-24.5%
CCN(CC)CCN(C(=O)c1cc2ccccc2cc1OC)c1nc2ccc(F)cc2s1,-20.0%
COc1ccc(-c2noc(-c3ccc(N4CCN(C)CC4)c([N+](=O)[O-])c3)n2)cc1OC,-3.1%
NS(=O)(=O)c1ccc(CCNC(=O)CSc2ccc(Cl)cc2)cc1,2.6%
CC(C)(C)OC(=O)N1CCN(C(=O)c2ncn(Cc3ccccc3)c2C(=O)N2CCN(C(=O)OC(C)(C)C)CC2)CC1,-0.4%
COc1cc(/C=C2\SC(=O)N(Cc3ccc(Cl)cc3)C2=O)cc([N+](=O)[O-])c1O,-3.3%

# A second format for part of the listing above:
mol	VDR inh
CCOC(=O)Cn1c(=O)n(CC2CCCO2)c2nc(-c3ccccc3F)nc(C(N)=O)c21 (stereo not drawn)	14.4%
COc1ccc(-c2noc(-c3ccc(N4CCN(C)CC4)c([N+](=O)[O-])c3)n2)cc1OC	-3.1%
Fc1ccc(CN2CCN(c3ncnc4scc(-c5ccc(F)cc5)c34)CC2)cc1	-2.5%

# Returning to the listing, repeating the 2 entries before the break.
SMILES,VDR inh
CC(C)(C)OC(=O)N1CCN(C(=O)c2ncn(Cc3ccccc3)c2C(=O)N2CCN(C(=O)OC(C)(C)C)CC2)CC1,-0.4%
COc1cc(/C=C2\SC(=O)N(Cc3ccc(Cl)cc3)C2=O)cc([N+](=O)[O-])c1O,-3.3%
CC(C)CC(=O)Nc1ccc(Oc2ccc3c(c2)C(=O)NC3=O)cc1,-7.0%
CCOc1cc(C2NC(=O)NC(C)=C2C(C)=O)cc(Cl)c1OCC(=O)O (stereo not drawn),-7.1%
Cc1cc(=O)n2nc(N3CCCC(C(=O)NCCCN4CC(C)CC(C)C4)C3)sc2n1 (stereo not drawn),1.0%
CCOC(=O)c1ccc(NC(=O)CSc2nnc(Cn3c(=O)sc4ccccc43)n2C)cc1,-3.5%
O=C1NC(Cc2c[nH]c3ccccc23)C(=O)N1Cc1cccc2ccccc12 (stereo not drawn),-21.0%
O=C(O)CCn1c(SCc2cc(=O)n3ccccc3n2)nc2ccsc2c1=O,6.8%
O=C(Nc1ccc(N2CCOCC2)cc1)c1cc2c(s1)CCCC2,-15.9%
COc1ccccc1NS(=O)(=O)c1cccc(C(=O)N/N=C/c2ccc(NC(C)=O)cc2)c1,-3.4%
COc1ccccc1-c1c(C)nn2c(N3CCN(Cc4ccccc4)CC3)cc(C)nc12,-8.1%
COc1ccc(C(=O)Nc2c(C(C)(C)C)nn(C)c2C(C)(C)C)cc1,-17.8%
CCCc1c(OCCCOc2ccc(OCC(=O)O)cc2)ccc(CC=O)c1O,35.5µM*
CCc1ccccc1NC(=O)CC(O)(C(=O)OC)C(F)(F)F (stereo not drawn),5.2%
CCOC(=O)Nc1sc2c(c1C(=O)OCC)CCC2,-0.6%
Cc1ccc(C)c(NC(=O)CCN2CC(C)CC(C)C2)c1 (stereo not drawn),-18.1%
CCN(CC)C(=O)CSc1nc(-c2ccccc2F)nc2c1Cc1c(CO)cnc(C)c1O2,7.7%
O=C(CSc1nnc(-c2ccc(F)cc2)o1)c1ccc2c(c1)OCCO2,1.1%
N#Cc1nc(Cc2ccccc2)oc1NCCN1CCOCC1,-19.5%
CCCN(CCC)CCNC(=O)C(NS(=O)(=O)c1ccc2c(c1)CCC(=O)N2)c1ccccc1 (stereo not drawn),3.8%
O=C(Nc1nnc(SCC(=O)N2CCOCC2)s1)C1CC(=O)N(c2ccccc2)C1 (stereo not drawn),10.5%
CC1CC(C)CN(c2nc3c(c(=O)n(C)c(=O)n3C)n2CCSc2ncccn2)C1 (stereo not drawn),18.4%
O=C(/C=C/Nc1ccccc1)c1ccccc1,-5.8%
COc1ccc(CNC(=O)COC(=O)C2CC2C)cc1OC (stereo not drawn),-4.2%
COc1cc2c(cc1OC)C(c1ccccc1)N(C(=O)c1cccc(S(C)(=O)=O)c1)CC2 (stereo not drawn),-3.0%
CCN(CC)c1ccc(C=Nc2cc(C)cc(C)c2)c(O)c1,-29.5%
Cc1ccc(S(=O)(=O)Nc2ccc(C(OC(=O)c3ccccc3[N+](=O)[O-])(C(F)(F)F)C(F)(F)F)cc2)cc1,-16.5%

# VDR inh, entries above that show a hit.
SMILES,VDR inh
CCCc1c(OCCCOc2ccc(OCC(=O)O)cc2)ccc(CC=O)c1O,35.5µM*

# Continued:
SMILES,VDR inh
CCOc1cc(NC(=O)C2CCCO2)c(OCC)cc1NC(=O)C1CC1 (stereo not drawn),7.9%
Cc1ccc(NC(=O)C2CC(=O)N(C(C)c3ccccc3)C2)cc1 (stereo not drawn),-3.6%
Cc1nn(-c2ccccc2)c(Cl)c1/C=N/NC(=O)c1ccnn1C,-8.0%
COc1ccc(CNC(=O)CN(C2CCCCC2)S(C)(=O)=O)cc1,-11.3%
Cc1ccc(N2C(=O)c3ccccc3C2Nc2ccccc2)nc1 (stereo not drawn),-19.0%
O=C(O)CCCC(=O)Nc1ccccc1Br,-6.6%
Cc1cccc(-n2c(CCc3ccccc3)nnc2SCC(=O)c2ccccc2)c1,?
COCC(=O)N(C)C1(c2nnnn2CCOC(=O)Nc2ccc(Cl)cc2)CCCC1,6.4%
COc1cc(OC)cc(-c2nnc(NC(=O)Cc3ccc(F)cc3)o2)c1,1.5%
COc1ccc(C2(CNC(=O)c3ccc(OC)c([N+](=O)[O-])c3)CCOCC2)cc1OC,15.9%
Cc1c(C(=O)NCc2ccco2)cccc1[N+](=O)[O-],-0.8%
CCn1c(SCC(=O)Nc2cc(OC)ccc2OC)nnc1C1CCCCC1,-19.5%
CCOC(=O)Nc1cccc(Cl)c1C,3.8%
Cc1cccc(CN2CCN(c3nc4nonc4nc3NC3CC3)CC2=O)c1,10.2%
CC(=O)N1CCOc2ccc(S(=O)(=O)N3CCC(C(=O)Nc4cc(C)ccc4C)CC3)cc21,7.3%
Cc1ccc(CNC(=O)C2CCN(S(=O)(=O)c3cccs3)CC2)cc1,-5.7%
C=CCc1cccc2cc(C(=O)NC3CCCC3)c(=O)oc12,22.5%
CC1CC(O)C(C)CN1 (stereo not drawn),-7.6%
CCOC(=O)NC(=O)c1cn(Nc2ccccc2)c(=O)[nH]c1=O,-4.7%
Oc1c(C(c2ccccc2Cl)N2CCCC2)sc2nc(-c3ccco3)nn12 (stereo not drawn),15.1%
CCOc1ccccc1NC(=O)C1CCN(C(=O)Cc2ccccc2)CC1,14.1%
COc1cc(NC(=O)CSc2nc3ccccc3cc2C)c(C(=O)O)cc1OC,-16.8%
CCN(CC)C(=O)CSc1nc2c(sc(=S)n2-c2ccccc2)c(=O)n1-c1ccc(OC)cc1OC,25.1µM*
C=C1CC2C=C(NC(C)=O)CC(C1)C2 (stereo not drawn),6.0%
CC12CCC(C(=O)N(Cc3ccccc3)Cc3ccccc3)(OC1=O)C2(C)C (stereo not drawn),4.4%

# An excerpt from above in order of the VDR inh value, smallest number first.
SMILES,VDR inh
CCn1c(SCC(=O)Nc2cc(OC)ccc2OC)nnc1C1CCCCC1,-19.5%
Cc1nn(-c2ccccc2)c(Cl)c1/C=N/NC(=O)c1ccnn1C,-8.0%
Cc1ccc(NC(=O)C2CC(=O)N(C(C)c3ccccc3)C2)cc1 (stereo not drawn),-3.6%
Cc1c(C(=O)NCc2ccco2)cccc1[N+](=O)[O-],-0.8%
COc1ccc(C2(CNC(=O)c3ccc(OC)c([N+](=O)[O-])c3)CCOCC2)cc1OC,15.9%

# Going on with the list:
SMILES,VDR inh
O=C(O)c1ccccc1C(=O)NCc1ccc(F)cc1,5.6%
Cc1nnc(SCc2ccccc2)n(N)c1=O,-3.7%
Cc1cccc(-c2nc(CSCC(=O)N3CCN(c4ccccc4)CC3)c(C)o2)c1,-29.2%
O=C(Nc1ccccc1)Nc1cc(Cl)cc(Cl)c1,13.9%
O=C(Cn1c(=O)n(CCc2c[nH]c3ccccc23)c(=O)c2cccnc21)Nc1ccccc1F,-15.3%
C=CCN1CC(C(=O)N2CCC(Cc3ccc(Cl)cc3)(C(=O)OCC)CC2)CC1=O (stereo not drawn),-8.9%
O=C(COc1ccccc1F)NC1CC(=O)N(c2ccc3c(c2)OCCO3)C1 (stereo not drawn),15.0%
COCc1cc(C)nc(SCC(=O)NCc2ccco2)c1C#N,4.7%
COc1ccccc1C(=O)NC(C)C(c1cccs1)N1CCOCC1 (stereo not drawn),-14.5%
COC(=O)C1C(=O)C(C(=O)/C=C/c2ccco2)C(=O)CC1(C)C (stereo not drawn),44.7µM*
O=C(CSc1ncn[nH]1)Nc1nc(-c2cccc([N+](=O)[O-])c2)cs1,-9.4%
O=C(COc1ccccc1Br)c1ccc(O)cc1O,-1.5%
CC1(C)CC(=O)C(C=NCC2CCCO2)=C(O)C1 (stereo not drawn),2.1%
CC(C)C[C@H]1CNC(=S)N1CC1CCCN1C[C@H](CC(C)C)N1C[C@H](Cc2ccc(O)cc2)N(CC2CCCCC2)C1=S (stereo partly drawn),-11.6%
CC(C)(Oc1ccc(Cl)cc1)C(=O)Nc1ccc2oc(=O)ccc2c1,7.8%
CC(=O)/C(=C/c1ccc(N(C)C)cc1)C(=O)c1ccccc1,-11.3%
CCCNc1ncccc1C(N)=O,4.8%
Cc1ccc(Cl)c2sc(N3CCN(C(=O)C4CC4)CC3)nc12,10.1%
CC(C)CCSc1cc(NCCO)c([N+](=O)[O-])c2nonc12,-9.6%
O=C(CN1C(=O)CCSc2ccccc21)Nc1ccc(C(F)(F)F)cc1,-9.9%
Cc1ccc(-n2ncc(C#N)c2/N=C/N2CCOCC2)cc1,1.8%
Cc1ccc(C(=O)CCC(=O)Nc2ncccc2C)cc1,-16.9%
